Sa helicase inh – S. aureus DNA helicase inhibition; inhibition, %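 (tested at about 80 µM)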; purified S. aureus helicase, fluorescence unwinding assay; about half of the hits fall short of the stated cut; 0.05% of 120,000 active;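 active means both duplicates at 50% or more, or one of them with a favoured structure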;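 further: 0% = mean of negative control wells and 100% = mean of positive control wells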
MgrA DNA FP – alters Staphylococcus aureus MgrA binding to DNA; fluorescence polarization; inhibition, %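 (about 10 µg/mL by stock and volumes)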; 0.13% of 84,000 active;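 active means above 50% in either of two replicates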;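 further: 0% = protein plus DNA without compound and 100% = DNA alone without protein; higher means less MgrA bound to DNA so lower polarization; one replicate is shown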
An asterisk follows results filed as active.

For CCOC(=O)CNC(=O)CC(=O)OCC the results were MgrA DNA FP -0.5.
`O=C1c2ccccc2C(=O)N1c1ccc2ncccc2c1` gave Sa helicase inh 9 and MgrA DNA FP 0.0.
For COC(=O)Nc1nnc(SCc2ccc(C)cc2)s1 the results were Sa helicase inh 19 and MgrA DNA FP -1.5.
For O=C(COc1ccc(-c2ccccc2)cc1)N1CCCC1 the results were Sa helicase inh -9 and MgrA DNA FP -0.9.
`CCOC(=O)c1cc2n(n1)C(C(F)(F)F)CC(c1ccccc1)N2` (stereo unspecified) gave Sa helicase inh 1 and MgrA DNA FP -0.5.
CC1CN(C(N)=S)N(c2ccccc2)C1 (stereo unspecified) was read as Sa helicase inh 11 and MgrA DNA FP -1.1.
For Cc1ccc(N=Cc2ccccc2O)cc1Cl the results were MgrA DNA FP -0.8.
Screening COc1ccc(-n2cc(-c3ccccc3)c3c(NCc4ccccc4)ncnc32)cc1 returned Sa helicase inh -15 and MgrA DNA FP 0.5.
`CCCNC(=O)C1CCN(c2cc(C)nc3c(-c4ccc(Cl)cc4)c(C)nn23)CC1` gave Sa helicase inh 10 and MgrA DNA FP 12.
`Cc1cc(C)c(C#N)c(SS(=O)(=O)c2nc(C)cc(C)c2C#N)n1` gave MgrA DNA FP -3.1.
COC(=O)C1=C(C)NC(C)=C(C(=O)OCCCN2CCC(c3ccccc3)(c3ccccc3)CC2)C1c1cccc([N+](=O)[O-])c1 (stereo unspecified) was read as MgrA DNA FP 2.3.
Screening COc1ccc2nc(C)cc(Nc3ccccc3)c2c1 returned Sa helicase inh -16 and MgrA DNA FP -0.6.
`CCCNC(=O)c1ccc2c(c1)c(C)c(C)n2C` gave Sa helicase inh -3.
`O=C(Oc1cccnc1)c1cc2ccccc2o1` gave Sa helicase inh 7 and MgrA DNA FP -0.3.
Screening CN(C1CCCCC1)S(=O)(=O)N1CCCC(C(=O)NCc2cccc(Br)c2)C1 (stereo unspecified) returned Sa helicase inh -3.
Screening Brc1ccc(Nc2ncnc3ccccc23)cc1 returned MgrA DNA FP 0.9.
O=C(Nc1cccc(Cl)c1)C1=CC(=O)N2CCN=C2S1 was read as Sa helicase inh -7 and MgrA DNA FP 25.
For Cc1cc(C(=O)N/N=C\c2ccccc2)n[nH]1 the results were Sa helicase inh 15 and MgrA DNA FP -0.5.
Screening Cc1nc(N2CCOCC2)sc1C(=O)c1ccc(Cl)c(S(=O)(=O)N2CCOCC2)c1 returned Sa helicase inh 10.
`Cc1ccc(C(=O)CSc2ccc(C(F)(F)F)cn2)cc1` gave MgrA DNA FP -1.8.
`O=C(CC12CC3CC(CC(C3)C1)C2)NCC(=O)N1CCN(Cc2ccccc2)CC1` gave Sa helicase inh 22 and MgrA DNA FP -1.2.
For OCc1cn(-c2ccccc2)nc1-c1ccc2c(c1)OCCO2 the results were Sa helicase inh 7.
Screening C#CC(CC)(CC)NC(=O)NC1CCCCC1 returned Sa helicase inh 18 and MgrA DNA FP -1.1.
Screening CCOC(=O)c1ccc(NC(=S)NCc2cccnc2)cc1 returned MgrA DNA FP 5.5.
Screening O=S(=O)(NCc1nc(-c2ccc(C(F)(F)F)cc2)no1)c1cccs1 returned MgrA DNA FP -2.9.
Cc1cccc(C)c1N1CCN(S(=O)(=O)N2CCCCC2)CC1 was read as Sa helicase inh 8 and MgrA DNA FP 0.4.
For C(=N\n1cnnc1)/c1cccc2ccccc12 the results were Sa helicase inh 14 and MgrA DNA FP 2.5.
COc1ccc(C(=O)COc2nc(-c3cccs3)cc(C(F)(F)F)c2C#N)cc1 was read as MgrA DNA FP 2.6.
For CCOC(=O)C(C#N)C1(c2c(C)[nH]n(-c3ccccc3)c2=O)C(=O)N(c2ccccc2)N=C1C (stereo unspecified) the results were MgrA DNA FP -0.7.
Screening O=C(COCc1cc(-c2ccc3c(c2)OCO3)on1)NC1CCCc2ccccc21 (stereo unspecified) returned Sa helicase inh 8.
For COc1ccc2c(CC(=O)OCc3cc(Cl)c4c(c3)OCCCO4)coc2c1 the results were Sa helicase inh -11.
c1ccc2sc(NC3=NCN(Cc4ccc5c(c4)OCO5)CN3)nc2c1 was read as Sa helicase inh 15 and MgrA DNA FP 0.0.
`COc1cc(SC)ccc1C(=O)NCC1CCCCC1` gave Sa helicase inh 2.
C/[N+]([O-])=C/c1ccccc1 was read as MgrA DNA FP 0.7.
COc1ccccc1-c1nn2c(Cn3cnc4ccccc43)nnc2s1 was read as Sa helicase inh 7.
c1nc(N2CCCC2)c2nc3n(c2n1)CCCCC3 was read as Sa helicase inh 1 and MgrA DNA FP 8.2.
CN(C)c1ccc(CNC(=O)C(NS(=O)(=O)c2ccc3c(c2)CCC(=O)N3)c2ccccc2)cc1 (stereo unspecified) was read as Sa helicase inh -18.
C=CCn1c(C)nc2c(cnn2-c2ccccc2)c1=O was read as Sa helicase inh 8.
For COc1ccc(Br)cc1S(=O)(=O)NCc1ccccn1 the results were Sa helicase inh 5 and MgrA DNA FP 0.3.
Screening O=C(CCS(=O)(=O)c1cccs1)Nc1ccc(C(=O)NCc2cccs2)cc1 returned Sa helicase inh 13 and MgrA DNA FP 1.2.

Three compounds out of the list, sorted by molar mass, highest first:
`Cc1cc(C)c(C#N)c(SS(=O)(=O)c2nc(C)cc(C)c2C#N)n1` gave MgrA DNA FP -3.1.
`CCOC(=O)c1cc2n(n1)C(C(F)(F)F)CC(c1ccccc1)N2` (stereo unspecified) gave Sa helicase inh 1 and MgrA DNA FP -0.5.
Screening C#CC(CC)(CC)NC(=O)NC1CCCCC1 returned Sa helicase inh 18 and MgrA DNA FP -1.1.

Next section.
For CCOCCCNc1ncnc2c1cnn2-c1ccc(F)cc1 the results were Sa helicase inh 20.
`COc1ccc(C2CC(c3cccs3)Nc3nc4ccccc4n32)cc1` (stereo unspecified) gave Sa helicase inh -8.
For Cc1ccc(/C=C(\NC(=O)c2ccc(C)cc2)C(=O)NCc2ccncc2)cc1 the results were Sa helicase inh 12 and MgrA DNA FP -1.4.
CCc1ccc(/C=C2\CN(C)C/C(=C\c3ccc(CC)cc3)C2O)cc1 was read as Sa helicase inh 0 and MgrA DNA FP 0.1.
`NC(=O)c1c(NC(=O)c2ccc3c(c2)S(=O)(=O)N=C2CCCCCN23)sc2c1CCC2` gave Sa helicase inh 10.
`CCn1cc(C(=O)O)c(=O)c2cc(S(=O)(=O)N(C)C3CCCCC3)ccc21` gave Sa helicase inh 3 and MgrA DNA FP 1.8.
Screening CC1CCC2C(=O)N(c3cc(Cl)ccc3O)C(=O)C2C1 (stereo unspecified) returned MgrA DNA FP 0.5.
Cc1ccc(C)c(NC2=NC3CS(=O)(=O)CC3S2)c1 (stereo unspecified) was read as Sa helicase inh -16.
COCc1cc(=O)n2[nH]cc(-c3ccc(Cl)cc3)c2n1 was read as Sa helicase inh 17.
For CCOc1ccccc1C(=O)Nc1ccc(Cl)cc1 the results were Sa helicase inh -1 and MgrA DNA FP 0.0.
CCc1ccccc1NC(=O)C1CCCN(c2ncnc3c2nc2n3CCCCC2)C1 (stereo unspecified) was read as Sa helicase inh 6 and MgrA DNA FP 5.2.
Screening CCC(C)NC(=O)c1ccc(N(CC)CC)cc1 (stereo unspecified) returned Sa helicase inh 1 and MgrA DNA FP 3.5.
Screening Nc1ccc(S(=O)(=O)C(F)(F)F)cc1N returned Sa helicase inh 3.
Screening CCN(CC)CCN(C)Cc1cc(OC)c(OC)cc1OC returned Sa helicase inh 11 and MgrA DNA FP -10.
COc1ccc(N/C=C2\C(=O)c3c(sc(C)c3C)N(C)S2(=O)=O)cc1 was read as MgrA DNA FP 3.0.
`N#CCc1ccc(OCc2ccc(Cl)cc2)cc1` gave MgrA DNA FP -1.2.
For CC1(C)CCC(C)(C)c2cc(C(=O)Nc3ccc(C(=O)O)cc3)ccc21 the results were MgrA DNA FP -2.1.
`O=C1c2ccccc2CCC1C1(O)C(=O)Nc2ccc(Br)cc21` (stereo unspecified) gave MgrA DNA FP 3.0.
`CC(=O)Nc1ccccc1OCCOc1ccccc1NC(C)=O` gave MgrA DNA FP -3.2.
`O=c1[nH]nc2c3c(cccc13)-c1ccccc1-2` gave Sa helicase inh 16 and MgrA DNA FP 1.5.

Gathered by group, those above with two or more sulfur atoms.
For COC(=O)Nc1nnc(SCc2ccc(C)cc2)s1 the results were Sa helicase inh 19 and MgrA DNA FP -1.5.
`Cc1cc(C)c(C#N)c(SS(=O)(=O)c2nc(C)cc(C)c2C#N)n1` gave MgrA DNA FP -3.1.
Screening Cc1nc(N2CCOCC2)sc1C(=O)c1ccc(Cl)c(S(=O)(=O)N2CCOCC2)c1 returned Sa helicase inh 10.
Screening O=S(=O)(NCc1nc(-c2ccc(C(F)(F)F)cc2)no1)c1cccs1 returned MgrA DNA FP -2.9.
Screening O=C(CCS(=O)(=O)c1cccs1)Nc1ccc(C(=O)NCc2cccs2)cc1 returned Sa helicase inh 13 and MgrA DNA FP 1.2.
`NC(=O)c1c(NC(=O)c2ccc3c(c2)S(=O)(=O)N=C2CCCCCN23)sc2c1CCC2` gave Sa helicase inh 10.
Cc1ccc(C)c(NC2=NC3CS(=O)(=O)CC3S2)c1 (stereo unspecified) was read as Sa helicase inh -16.
COc1ccc(N/C=C2\C(=O)c3c(sc(C)c3C)N(C)S2(=O)=O)cc1 was read as MgrA DNA FP 3.0.

Additional entries.
O=C(NCC(c1cccs1)N1CCOCC1)C(F)(F)F (stereo unspecified) was read as Sa helicase inh 16 and MgrA DNA FP 0.6.
O=C1c2ccccc2C2=Nc3ccccc3OC12O (stereo unspecified) was read as Sa helicase inh 32.
Clc1ccc(-c2ccc(-c3nn4c(Cc5ccccc5)nnc4s3)o2)cc1 was read as Sa helicase inh 29.
Screening CNC(=O)CN(c1ccc(Cl)cc1Cl)S(C)(=O)=O returned Sa helicase inh 14 and MgrA DNA FP 0.6.
For CCOC(=O)c1sc(=NC(C)=O)n(C)c1C the results were Sa helicase inh 14.
Screening COC(=O)c1cc(C)nc2c1c(C)nn2-c1ccccc1Cl returned Sa helicase inh 13.
For C=CCN1CCN(C(=O)c2ccc(Br)cc2)CC1 the results were Sa helicase inh 16 and MgrA DNA FP 8.1.
`CCN(CC)c1ccc(/C=C2/C(=O)N=C(N)N2C)cc1` gave Sa helicase inh -2 and MgrA DNA FP 13.
`CC1CN(C(=O)c2cccc(Cl)c2)CC(C)O1` (stereo unspecified) gave Sa helicase inh 2.
O=C(CS(=O)(=O)c1cn(Cc2ccc(Cl)cc2)c2ccccc12)Nc1nccs1 was read as Sa helicase inh 13.
CC(C)CN1C(=O)N(c2ccccc2)C(n2oc(=O)n(-c3ccccc3)c2=O)C1(C)C (stereo unspecified) was read as Sa helicase inh 11 and MgrA DNA FP -2.5.
CC(=O)Oc1ccc2ccc3ccc(OC(C)=O)c4ccc1c2c34 was read as Sa helicase inh 0 and MgrA DNA FP 3.4.
`Cc1cc(C=C(C#N)C#N)c(C)n1-c1ccc(N2CCOCC2)cc1` gave Sa helicase inh 4 and MgrA DNA FP -2.5.
For C=CCSC1=C(C#N)C(c2ccc(C(C)C)cc2)CC(=O)N1 (stereo unspecified) the results were Sa helicase inh 4.
Cc1ccc(N2C(=O)C3C4C=CC(CC4)C3C2=O)c(Br)c1 (stereo unspecified) was read as MgrA DNA FP -1.4.
For Cc1ccc(Nc2ccccc2N)cc1 the results were Sa helicase inh -65 and MgrA DNA FP -5.3.
O=S1(=O)CC(O)C(N2CCCCC2)C1 (stereo unspecified) was read as Sa helicase inh 4.
CC(C)(C)S(=O)(=O)CCC#N was read as Sa helicase inh -2 and MgrA DNA FP 0.1.
`CCN1CCCC1CNC(=O)c1cc2ccc3cccnc3c2[nH]1` (stereo unspecified) gave Sa helicase inh -16.
For CCCn1c(-c2ccc(N(C)C)cc2)nc2ccccc21 the results were Sa helicase inh 17.
`COc1ccc(OCC(=O)Nn2c(=S)[nH]c3ncccc3c2=O)cc1` gave Sa helicase inh 2 and MgrA DNA FP 2.6.
Screening COC(=O)CSc1nnc(CNC(=O)c2ccc(S(=O)(=O)N3CCCCC3)cc2)n1C returned Sa helicase inh 8 and MgrA DNA FP -2.0.
For O=c1ccc(=O)n(CN2CCN(Cc3ccccc3)CC2)[nH]1 the results were Sa helicase inh 19.
`Cc1ccccc1NC(=O)COC(=O)c1ccc2c(c1)C(=O)N(CCCN1CCOCC1)C2=O` gave Sa helicase inh 14.
Screening CN(C)c1ccc(NC(=O)CC2Sc3ccccc3NC2=O)cc1 (stereo unspecified) returned Sa helicase inh 13.
Screening O=C(Cc1ccccc1)Nc1ccc(N2CCOCC2)cc1 returned Sa helicase inh 10.
`CC(C)Cn1c(SCC(=O)c2ccc3[nH]c(=O)[nH]c3c2)nc2ccccc21` gave Sa helicase inh 10.
CC1=Nc2nc(N3CCCCC3)c(C#N)c3c4c(nc(c23)N1)N(c1ccc(C)cc1)C(=O)C4 was read as Sa helicase inh 29.
For COc1ccc2c(c1OC)C(=O)N1c3ccccc3COC21 (stereo unspecified) the results were Sa helicase inh 14.
`Cc1ccc(N=C2NC(=O)/C(=C\c3cccs3)S2)c(C)c1` gave Sa helicase inh -13.
`O=C1CCCc2[nH]c(=O)cc(C(F)(F)F)c21` gave MgrA DNA FP 0.8.
Cn1nc(C(=O)N(Cc2ccco2)Cc2cccs2)ccc1=O was read as Sa helicase inh 38.
For CCCCc1c(C)nc2ccc(Br)cc2c1SCCC(=O)O the results were Sa helicase inh -7 and MgrA DNA FP -1.8.
For Cc1cc2occ(CC(=O)Nc3ccc(S(=O)(=O)N4CCOCC4)cc3)c2cc1C(C)C the results were Sa helicase inh -6.
`Cc1c(C=Nc2ccc(SC#N)c(Cl)c2)c(O)[nH]c(=O)c1C#N` gave Sa helicase inh 1 and MgrA DNA FP 5.2.
Cc1cc2nn(-c3ccccc3)nc2cc1NC(=O)c1ccccc1 was read as Sa helicase inh 11.
`COC(=O)c1scc(C)c1NC(=S)OC` gave MgrA DNA FP -0.2.
Screening Cc1ccc(S(=O)(=O)N2CCC(C(c3ccccc3)c3ccccc3)CC2)cc1 returned MgrA DNA FP -1.1.
For Cc1nnn(C23CC4CC(CC(C(=O)Nc5ccc(Br)cc5)(C4)C2)C3)n1 the results were Sa helicase inh 5.

Some of the compounds tested; the hit share may differ from the screen's.
